Bioassay records: PubChem, ICCB-Longwood Screening Facility, Harvard Medical School
Sa growth 42C – blocks Staphylococcus aureus growth. S. aureus RN4220 growth, OD600, 20 h, 42 °C; hits give low values. relative growth, % (concentration not given with the values). 0.53% of 170,000 active;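 active = growth at 42 °C up to 50% and 20 or more points under that at 30 °C, or under 10% at both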;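 note: 300 nL library stock went into each well; scaled to the means of positive and negative controls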
GIV Gai3 FP – inhibitors of GIV GBA-motif binding to rat Galpha-i3; 0.42% of 210,000 active; AID 1224905; percent of control (FP), % (test concentration not listed); P08753; Galpha-i3/FITC-GIV peptide fluorescence polarization, 90 min; hits give low values; scaled: aluminum fluoride 0%, vehicle 100%;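 active = replicate mean at 85% of control or lower, very high polarization wells dropped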;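 note: wells of about 15 µL received 100 nL stock; the first replicate is given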
Target sequence (P08753 whole entry, looked up): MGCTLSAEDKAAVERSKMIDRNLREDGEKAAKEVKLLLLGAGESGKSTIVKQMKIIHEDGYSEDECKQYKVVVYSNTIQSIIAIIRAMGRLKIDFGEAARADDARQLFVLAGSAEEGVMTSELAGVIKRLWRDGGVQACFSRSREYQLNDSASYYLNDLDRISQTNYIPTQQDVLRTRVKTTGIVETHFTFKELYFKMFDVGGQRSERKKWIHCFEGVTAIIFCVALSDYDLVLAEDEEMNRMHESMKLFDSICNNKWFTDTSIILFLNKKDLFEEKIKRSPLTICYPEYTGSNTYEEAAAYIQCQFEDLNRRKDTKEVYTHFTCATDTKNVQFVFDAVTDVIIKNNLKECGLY
HCMV NEC inh – inhibitors of HCMV UL50-UL53 nuclear egress complex interaction | HTRF UL50-UL53 interaction, normalized percent inhibition | inhibition, % (concentration not given with the values) | 0.15% of 190,000 active | AID 1918969;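 active = both replicates at 50% or more, plus weaker picks with an unusually low signal ratio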;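 note: stock transfer was 100 nL into about 20 µL; 0% = negative control wells and 100% = wells with untagged competitor protein; inactives centre near -12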
Sa growth 42C second temp – recorded beside Sa growth 42C, whose call it bears; relative growth, %; measured here: growth at 30 °C;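 optical density after 20 h as mean of two plates; 100% = untreated growth and lower means inhibition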
Numbers without * were called inactive; . = no result given; & = joins results of further samples. Random draw from the library; about 0.83% have a hit in one of these screens.

cpd	Structure	Sa growth 42C	Sa growth 42C second temp	GIV Gai3 FP	HCMV NEC inh
1	COc1ccc(-n2nc(C(=O)NCC(=O)NCC3CCCO3)c3ccccc3c2=O)c(OC)c1 (stereo unspecified)	132	83	99	-4
2	Cc1ccc(NC(=O)C23C(=O)Oc4ccccc4C2C3(C)C(=O)c2ccccc2)cc1 (stereo unspecified)	82	100	105	-4
3	O=C1c2[nH]nc(-c3ccccc3O)c2C(c2ccc(F)cc2)N1CCO (stereo unspecified)	100	82	100	-17
4	CCOC(=O)C1CCN(S(=O)(=O)c2cc(Br)cc3c2N(C(C)=O)C(C)C3)CC1 (stereo unspecified)	96	89	106	6
5	O=C1c2cccnc2C(=O)N1CCc1ccc(S(=O)(=O)NC2CCCCCC2)cc1	93	102	103	-17
6	Nc1nccnc1C(=O)O	98	91	.	-23
7	CC[n+]1c(C)sc2ccc(CC(=O)[O-])cc21	110	84	.	-14
8	COc1cc(C2c3c(-c4ccccc4O)n[nH]c3C(=O)N2CCO)ccc1OCC(C)C (stereo unspecified)	109	75	105	7
9	CCOC(=O)c1ccoc1COC(=O)/C=C/c1ccc(SC)cc1	113	97	.	-2
10	O=c1cc(-c2c(F)c(F)c(F)c(F)c2F)oc2c(F)c(F)c(F)c(F)c12	108	84	.	21
11	CC1CCN(c2cc(N3CCCCC3)c3c4c(onc24)-c2ccccc2C3=O)CC1	.	.	215	-49
12	O/N=C1\CCC\C1=C/c1ccco1	91	90	.	-69
13	COc1cccc(C(=O)Nc2nnc(S(=O)(=O)N3CCCc4ccccc43)s2)c1	89	61	108	-24
14	COc1ccc(CCNC(=O)c2n[nH]c(=O)c3ccccc23)cc1OC	104&101	88&88	99&101	-4
15	O=C(O)C1CSC(c2cccc(OCc3ccc(Cl)cc3)c2)N1 (stereo unspecified)	.	.	99	0
16	CCC(=O)Nc1nnc(C)s1	82	89	.	-24
17	Cc1c(-c2nnc(C(=O)NC3CC3)o2)oc2ccccc12	.	.	103	-28
18	Cc1nnc(SCC(=O)n2c3ccccc3c3ccccc32)s1	89	93	103	-24
19	Cc1oc(-c2ccccc2)nc1C(=O)OCc1cc(=O)n2ccsc2n1	90	93	.	-11
20	COc1ccc(CNn2c(-c3ccc(Br)cc3)nc3ccccc3c2=O)cc1OC	.	.	106	-13
21	O=C(O)c1ccc(NCc2nc3ccccc3n2CCOc2ccccc2Cl)cc1	84	51	108	6
22	COc1ccc(-c2nc3n(c2C(=O)N(C)C)CCS3(=O)=O)cc1	.	.	103	-20
23	COc1ccc(N2CCN(c3ncnc4sc(C(=O)N5CCC(C)CC5)c(C)c34)CC2)cc1	.	.	104	-9
24	Cc1ccc(SCCSc2ncccn2)cc1	117	107	100	-16
25	CCOC(=O)c1cc(C)n(CC2CCC(C(=O)N3CCCC3)CC2)c1C (stereo unspecified)	91	89	102	.
26	CCn1c(=O)c2ccccc2n2c(=S)[nH]nc12	90	91	.	6
27	CC(C)CCNC(=O)C(=O)NCc1n[nH]c(=O)c2ccccc12	.	.	108	-7
28	Nc1nc(SCC(=O)c2cccs2)n[nH]1	111	96	.	2
29	O=C1NC2(CCc3ccccc32)C(=O)N1CN1CCN(S(=O)(=O)/C=C/c2ccccc2)CC1 (stereo unspecified)	89	84	.	-46
30	Cc1occc1-c1nnc(SCC(=O)N(C)C)o1	88	85	.	-23
31	O=C(Nc1cccnc1)NC1CC(=O)N(c2ccccc2)C1 (stereo unspecified)	106	96	107	4
32	Cc1cccc(-c2nc3scc(CCNC(=O)c4ccc(Br)o4)n3n2)c1	82	83	109	.
33	O=C(OCc1nc2ccccc2c(=O)[nH]1)c1ccc(S(=O)(=O)N2CCCC2)cc1	96	97	.	-17
34	COC(=O)c1ccc(C(=O)OC)c2c(C(=O)OC)ccc(C(=O)OC)c12	106	87	.	-15
35	CCc1sc(-c2nnc(CSc3nnc(-c4ccncc4)n3C)o2)cc1C	81	91	.	-45
36	COc1cc(C(CC(=O)Nc2ccc(Br)cn2)N2Cc3ccccc3C2=O)cc(OC)c1OC (stereo unspecified)	137	89	103	.
37	CCC(Sc1nc2cc3c(cc2c(=O)n1CCCC(=O)NCc1ccc2c(c1)OCO2)OCO3)C(=O)NCCCOC (stereo unspecified)	95	81	102	.
38	Cc1ccc(C)c(C(=O)CSc2nc3ccccc3o2)c1	102	97	103	-1
39	CC(Sc1nc2c(cnn2-c2ccc(F)cc2)c(=O)[nH]1)c1ccccc1 (stereo unspecified)	.	.	99	-14
40	Cc1sc(Nc2ccccc2)nc1-c1ccccc1	105	90	99	-19
41	COC(CNC(=O)c1cccc(NS(=O)(=O)c2ccc(C)cc2)c1)OC	86	86	105	.
42	CCOC(=O)/C(C#N)=C\c1cc2ccc(OC)cc2[nH]c1=O	115	87	56*	-59
43	O=C(CSc1nncs1)Nc1ccccc1	76	93	.	-6
44	O=C(c1cncc(NS(=O)(=O)c2ccc(Cl)cc2)c1)N1CCCc2ccccc21	120	79	111	.
45	CC(=O)Nc1ccc(S(=O)(=O)NCC2CCC(C(=O)NCc3ccccc3Cl)CC2)cc1 (stereo unspecified)	115	90	103	.
46	Cc1nc2nc(-c3ccccc3)nn2c(C)c1CC(=O)N1CCCC1	.	.	111	-1
47	O=C(C1CCCN(S(=O)(=O)c2cccc3nonc23)C1)N1CCN(c2ccccc2Cl)CC1 (stereo unspecified)	106	98	109	-44
48	COc1ccc(C)cc1NC(=O)CN1CCN(CC(=O)Nc2ccccc2F)CC1	98	81	104	.
49	Cc1sc(NC(=O)c2ccccc2)c(C(c2cccs2)N2CCN(C)CC2)c1C (stereo unspecified)	123	32	.	1
50	O=C(CSc1ccccc1)OCc1nc2ccsc2c(=O)[nH]1	94	81	.	-2
51	COc1ccc(CCNC(=O)c2cc(C)nc3c2c(C)nn3-c2ccccc2)cc1OC	101	98	103	.
52	CC(Sc1nc2ccccc2n1CCC#N)C(=O)N1CCCC1 (stereo unspecified)	92	96	.	-18
53	CCSc1ncc2c(=O)n(CC(=O)Nc3cccc(Cl)c3C)cnc2n1	.	.	114	-2
54	COc1ccc(CNC(=O)CCCN2CCSc3ccccc32)cc1OC	.	.	104	-20
55	Cc1nn2c(nc(Cl)c3ccccc32)c1Cl	98	84	.	-23
56	CCCN1C(=O)CN(C2CCCCC2)C(=O)C1c1ccc(OC)c(OC)c1 (stereo unspecified)	88	91	101	.
57	NC1=NC(=O)/C(=C/c2ccccc2OCc2ccccc2Cl)S1	.	.	101	-5
58	S=C(NCC1CCCO1)Nc1ccc(N2CCCCC2)cc1 (stereo unspecified)	88	98	.	0
59	CCNC(=O)N1CCCC(c2cccc(C(=O)N3CCCCC3)c2)C1 (stereo unspecified)	.	.	110	-6
60	CNc1nc(OC)nc(N(C)C)n1	106	103	103	11

The closing 5 compounds of the part before are carried over, then new ones follow.
cpd	Structure	Sa growth 42C	Sa growth 42C second temp	GIV Gai3 FP	HCMV NEC inh
56	CCCN1C(=O)CN(C2CCCCC2)C(=O)C1c1ccc(OC)c(OC)c1 (stereo unspecified)	88	91	101	.
57	NC1=NC(=O)/C(=C/c2ccccc2OCc2ccccc2Cl)S1	.	.	101	-5
58	S=C(NCC1CCCO1)Nc1ccc(N2CCCCC2)cc1 (stereo unspecified)	88	98	.	0
59	CCNC(=O)N1CCCC(c2cccc(C(=O)N3CCCCC3)c2)C1 (stereo unspecified)	.	.	110	-6
60	CNc1nc(OC)nc(N(C)C)n1	106	103	103	11
61	Cc1nc2c3ccccc3n(Cc3ccccc3)c2s1	89	101	104	8
62	Cc1ccc2c(CC(=O)N(Cc3ccc(N(C)C)cc3)Cc3ccco3)coc2c1C	98	67	110	-2
63	Cc1nonc1NC1(Nc2nonc2C)C(=O)c2ccccc2C1=O	111	96	.	-1
64	CC(C)c1nc(N2CCN(C(=S)NC3CCCCC3)CC2)c(C#N)c2c1CCCC2	102	79	103	.
65	CCOc1cc(CNC(=O)c2ccc3c(c2)N(C)C(=O)C2CCCCN32)cc(OCC)c1OCC (stereo unspecified)	103	95	104	.
66	O=C1c2ccccc2C(=O)c2c1oc1c3c(ccc21)OCN(CCCn1ccnc1)C3	5.8*	8.2*	.	-72
67	Cc1noc2c1C(c1ccccc1F)C1=C(CC(c3ccc(O)cc3)CC1=O)N2 (stereo unspecified)	.	.	106	-26
68	CC1(C)CC2CC(C)(CN2C(=O)c2ccccc2)C1 (stereo unspecified)	91	88	.	-5
69	O=C(O)c1ccc2c(c1)CCC2	114	93	103	-18
70	COc1ccc(-c2nc3c(c(SCC(=O)N4CCCCC4)n2)Cc2cc(C)ccc2O3)cc1	110	84	106	-19
71	CCCN(CCC)C(=O)c1c(NC(=O)c2ccco2)sc2c1CCC(C)C2 (stereo unspecified)	120	105	.	13
72	Cc1c(CC(=O)N(C)C)sc2ccccc12	91	91	109	-6
73	COC(=O)CN1C(=O)C(OC(C)=O)S(=O)c2ccccc21 (stereo unspecified)	85	100	103	-1
74	CC(C)(C)OC(=O)NCC1CCN(Cc2ccccc2)CC1	90	90	103	-15
75	CCn1c(C)nc2cc(-c3nnc(Nc4ccccc4)o3)ccc21	74	86	.	-8
76	CCN1CCN(c2ncnc3c2cnn3-c2ccc(F)cc2)CC1	107	88	103	.
77	CCCc1noc(-c2cc(S(=O)(=O)NCCOC)ccc2OC)n1	.	.	104	7
78	CCCC1C(=O)CC(C#N)(C#N)C(C#N)(C#N)C1c1ccccc1 (stereo unspecified)	86	83	133	-6
79	O=C(Nc1ccc(NC(=O)C2CC23CCC3)cc1)C1CC12CCC2 (stereo unspecified)	81	108	98	-10
80	Cc1cccc(N2CCN(c3c(O)c(=O)c3=O)CC2)c1C	.	.	106	-10
81	Cc1ccc(CNC(=O)c2cnc3ccccn3c2=O)cc1	103	98	108	-48
82	Cc1nc(SCCNCCO)c2c3c(sc2n1)CCC3	94	90	.	-20
83	CN(CCc1noc(COc2ccc(F)cc2)n1)C(=O)C1CCCCC1	.	.	102	3
84	CC(C)C(Nc1ncnc2ccc(Br)cc12)C(=O)O (stereo unspecified)	90	82	102	-30
85	Cc1nn(-c2ccccc2)c(N)c1Sc1c(F)c(F)c(F)c(F)c1F	85	77	.	-26
86	O=C(CSc1nc(-c2ccccc2)cn1-c1ccccc1)Nc1ccccc1	96	93	108	.
87	Cc1ccccc1NC(=O)c1ccc2[nH]c(C)c(C)c2c1	114	98	110	.
88	COc1ccc(F)cc1S(=O)(=O)Nc1ccc2c(c1)oc1ccc(S(=O)(=O)N3CCCC3)cc12	110	99	108	-7
89	CN(CCOc1ccccc1)CC(=O)Nc1ccc(Br)cc1F	93	97	.	0
90	Cc1ccc(NC(=O)CSC2=NN3CCCC(=O)N=C3S2)cc1Cl	.	.	105	-32
91	Cc1cccc2cc3c(nc12)N(S(=O)(=O)c1ccccc1)CC3	.	.	112	6
92	CC(=O)OC1CC(C(=O)O)N(S(=O)(=O)c2ccc(F)cc2)C1 (stereo unspecified)	107	93	.	11
93	O=C(O)COCC(=O)Nc1ccc(OC(F)F)cc1	93	81	106	-20
94	NS(=O)(=O)c1ccc(N=C2NC(=O)C(CC(=O)Nc3ccccc3)S2)cc1 (stereo unspecified)	111	79	101	.
95	CS(=O)(=O)N(Cc1ccccc1)c1ccccn1	94	90	105	-20
96	Nn1c(Cc2ccccc2F)nnc1SCc1cc(=O)oc2cc(O)c(O)cc12	139	64	.	-68
97	COc1ccc(C(=O)NNc2ncnc3c2cnn3-c2cccc(Cl)c2)cc1OC	130	84	101	.
98	CCCN(CCC)C(=O)Cn1c(=O)n(CCCCCC(=O)NCc2ccc3c(c2)OCO3)c(=O)c2sccc21	113	95	105	4
99	Nc1ccccc1C(=O)N1CCCC1	96	87	101	-2
100	CC(C)NC(=O)CSCc1c(Cl)cccc1Cl	86	97	.	-8
101	Cc1ccc2nc(CCc3ccc(NC(=O)CN4C(=O)COc5ccc(C(C)(C)C)cc54)cc3)[nH]c2c1	.	.	105	-35
102	COc1ccc(-c2nn3c(NCc4ccccc4)cc(C)nc3c2C)cc1OC	.	.	108	-4
